Beta cell apopt: inhibitors of cytokine-induced beta cell apoptosis, primary screen, luminescence | 300,000 tested, 0.8% active | INS-1E cytokine-induced death, ATP luminescence, 48 h; percent of positive-control rescue, neutral wells zero | protection from apoptosis, % (no concentration beside the values);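 active means all replicates at 75% or more, or half of them and the mean; inconclusive means half reach 75% but not the mean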;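 further: 0% = cytokine-treated negative control wells and 100% = positive control rescue; higher means more ATP so stronger rescue from cytokine killing; wells of about 40 µL received 100 nL stock; the first replicate is given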
T cruzi inh: inhibitors of intracellular T. cruzi growth, primary screen, luminescence, NIH3T3 host cells; inhibition, % (no concentration beside the values); AID 1885, 2009; 300,000 tested, 1.4% active; T. cruzi beta-gal in NIH3T3, 90 h;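 active means mean inhibition across valid replicates above about 55%, limit read from the data; inconclusive means mean below that limit but half or more replicates reach it; inactive means mean below it, under half of replicates reach it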;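 further: signal also drops with host cell toxicity which is not excluded here; 0% = plate median of DMSO wells and 100% = zero luminescence signal; higher percent means less beta-gal luminescence so fewer parasites; stock transfer was 50 nL into about 50 µL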
RanGTP-Imp inh: inhibitors of RanGTP-importin-beta interaction, primary screen, biochemical, FRET, CFP-Ran, YFP-importin-beta, homogeneous | Ran GTPase (GTP-bound) - importin-beta complex | AID 2216, 2009 | cell-free CFP-Ran/YFP-importin-beta FRET ratio | inhibition, % (test concentration not listed) | 300,000 tested, 1.1% active;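 active means most replicates above 15%; inconclusive means exactly half above 15%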;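 further: 0% = DMSO wells and 100% = Ran loaded with GDP instead of GTP; wells of about 40 µL received 100 nL stock; the first replicate is given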
ALR inh: inhibitors of human ALR sulfhydryl oxidase, primary screen, biochemical, H2O2 detection, HRP-luminol luminescence, single point. FAD-linked sulfhydryl oxidase ALR (Homo sapiens), P55789. purified ALR, DTT oxidation. inhibition, % (no concentration beside the values). 290,000 tested, 3.8% active. AID 485317, 2010;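 active means mean and each replicate at 75% or more; inconclusive means only one of the two met; inactive means neither met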;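 further: stock transfer was 7.5 nL into about 7.5 µL; 0% = neutral wells and 100% = wells with inactivated enzyme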
Target sequence (P55789 whole entry, looked up): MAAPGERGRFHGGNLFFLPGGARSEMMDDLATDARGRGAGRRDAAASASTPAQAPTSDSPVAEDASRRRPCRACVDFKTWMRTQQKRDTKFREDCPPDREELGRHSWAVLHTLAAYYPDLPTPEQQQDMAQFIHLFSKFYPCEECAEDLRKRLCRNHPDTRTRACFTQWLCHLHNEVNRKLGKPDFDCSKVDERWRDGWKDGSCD
FGF22 binding: binders of human FGF22 protein, primary screen, FGF22 synaptogenesis inhibitor project, biophysical, thermal shift, single point | Fibroblast growth factor 22 (Homo sapiens), Q9HCT0 | recombinant FGF22 thermal shift, SYPRO orange fluorescence; percent of sucrose octasulfate shift, DMSO zero | calls only at 9.99 µM | 340,000 tested, 1.5% active | AID 651658, 2012;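 active means melting point raised past a set limit in the mean and every replicate; inconclusive means no clear call; three in four hits are not shown here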
Target sequence (Q9HCT0 whole entry, looked up): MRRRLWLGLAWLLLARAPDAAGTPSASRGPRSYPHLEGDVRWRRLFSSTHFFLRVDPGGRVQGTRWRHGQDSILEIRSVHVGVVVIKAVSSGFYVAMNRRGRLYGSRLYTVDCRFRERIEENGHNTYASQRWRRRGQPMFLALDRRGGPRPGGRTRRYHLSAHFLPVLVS
rRNA inh HTS: reduced GFP signal of wild-type E. coli, primary screen, bacterial rRNA inhibitor project, GFP/RFP fluorescence, OD600, single point; E. coli WT GFP vs humanized-ribosome RFP mutants, 24 h; stronger effect = lower value; DMSO median 0, no signal -100; GFP signal change (wild-type ribosome), % (no concentration beside the values); 350,000 tested, 1.6% active; AID 720706, 2013;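 active means significant combined selectivity score with lowered wild-type GFP, culture density cut under 30%, mutant RFP and density less affected; inactive means any of these conditions unmet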; further: one replicate is shown; some compounds called inactive have numbers as strong as hits
MLL AF4-AF9 inh: inhibitors of AF4 peptide binding to AF9, primary screen, biochemical, AlphaScreen, biotin-AF4 peptide, FLAG-AF9, single point; Protein AF-9 (Homo sapiens), P42568; AID 651704, 2012; 350,000 tested, 0.47% active; inhibition, % at 10 µM;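 active means every replicate reaching a set inhibition limit, whatever the replicate mean, cut at about 25% in these data; inconclusive means mean inhibition reaches that limit but some replicates miss it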;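 further: 0% = plate neutral control median and 100% = total signal loss; the record names both 10 and 1 µM as test concentration; the first replicate is given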
Target sequence (P42568 whole entry, looked up): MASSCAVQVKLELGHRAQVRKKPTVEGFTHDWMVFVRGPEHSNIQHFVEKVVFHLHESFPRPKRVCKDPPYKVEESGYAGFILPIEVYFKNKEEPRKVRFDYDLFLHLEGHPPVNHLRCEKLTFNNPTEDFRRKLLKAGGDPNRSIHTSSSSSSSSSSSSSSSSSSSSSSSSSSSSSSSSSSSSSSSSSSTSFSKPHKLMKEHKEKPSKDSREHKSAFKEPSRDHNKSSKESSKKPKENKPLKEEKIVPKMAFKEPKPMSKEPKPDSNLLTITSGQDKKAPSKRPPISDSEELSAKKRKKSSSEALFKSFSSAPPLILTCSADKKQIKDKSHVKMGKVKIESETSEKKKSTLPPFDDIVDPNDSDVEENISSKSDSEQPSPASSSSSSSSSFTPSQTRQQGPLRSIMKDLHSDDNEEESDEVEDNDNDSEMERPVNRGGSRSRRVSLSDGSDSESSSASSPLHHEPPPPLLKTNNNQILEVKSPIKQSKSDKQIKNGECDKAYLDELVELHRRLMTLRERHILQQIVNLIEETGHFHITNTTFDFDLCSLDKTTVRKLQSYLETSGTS
Calb FLC: C. albicans growth inhibition with fluconazole, primary screen, CaCi-2 strain, Alamar Blue fluorescence. C. albicans CaCi-2 (fluconazole-resistant clinical isolate) + fluconazole, 48 h. 300,000 tested, 0.57% active. AID 1979, 2009. growth inhibition, % (concentration not given with the values);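 active means most replicates above 75%; inconclusive means exactly half above 75%; inactive means most below 75%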;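 further: all wells also contain fluconazole at 8 µg/ml as a sub-toxic cotreatment; 0% = median of DMSO wells and 100% = median of geldanamycin control wells; wells of about 8 µL received 7.5 nL stock; the first replicate is given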
rRNA inh HTS OD600: also measured in rRNA inh HTS; calls as there; OD600 change, %; measured here: OD600 growth;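 optical density of the mix in the first replicate; 0 = DMSO median and -100 = no signal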
rRNA inh HTS RFP: further read-out of rRNA inh HTS, marked with its call; RFP signal change, %; measured here: RFP humanized mutant strains;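 first replicate; 0 = DMSO median and -100 = no signal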
An asterisk follows results filed as active; i = inactive; u = inconclusive; x = no result given; + = active, no number. An excerpt, so the mix of outcomes need not match the whole.

SMILES	Beta cell apopt	T cruzi inh	RanGTP-Imp inh	ALR inh	FGF22 binding	rRNA inh HTS	rRNA inh HTS OD600	rRNA inh HTS RFP	MLL AF4-AF9 inh	Calb FLC
COC(=O)/C=C/c1c(C)nc(NCc2ccccc2)nc1Cl	-1	-4	0.1	-9	i	-2	-4	3.4	2.1	-2
COc1ccc(C(=O)NC(=S)NC(C)C)cc1Br	-4	3	6.2	-5	x	x	x	x	x	-42
COc1ccc(/C=C/C(=O)OCC(=O)c2ccc3c(c2)NC(=O)CO3)c(OC)c1	-11	-1	-2.9	-2	i	-16	-16	-3.3	x	-8
COCC(C)NC(=O)Cn1c(SCc2ccccc2)nc2ccccc21 (centres undefined)	0	x	-1.1	x	i	8	-4	-0.3	-1.4	3
CN1C(=O)CSc2ccc(C(=O)O)cc21	-2	-12	-0.1	-11	i	3	6	-1.5	-0.9	-3
O=C(Nc1ccc(C(=O)N2CCN(c3ccccc3)CC2)cc1)C1=CSCCO1	-1	6	-4.6	63	i	-20	-4	-1.7	4.9	-9
COc1ccc(OC)c(-n2c(SCC(=O)N3CCc4ccccc43)nc3c(c2=O)SCC3)c1	5	7	-0.4	-15	x	x	x	x	x	-3
CN1CCN(C(c2ccc(C(F)(F)F)cc2)c2ccc3cccnc3c2O)CC1 (centres undefined)	81*	71*	-2.3	4	i	-37	-57	-8.6	85*	97*
OC(c1ccccn1)(c1ccccn1)c1ccccn1	64	-37	6.0	1	x	x	x	x	x	-7
CCOC(=O)c1c(C)[nH]c(C(=O)COC(=O)CCSc2ccccc2)c1C	-1	-5	0.5	1	x	x	x	x	x	-1
O=C(Nc1cccnc1)C1CCN(S(=O)(=O)c2ccc(Cl)cc2)CC1	-3	-2	2.9	-2	i	-2	-3	-1.3	0.2	-14
CC1CCN(S(=O)(=O)N2CCC(C(=O)NCCC3=CCCCC3)CC2)CC1	-6	2	-2.1	3	x	15	6	0.8	-1.4	-20
COC(=O)N(C)c1nc2ccccc2s1	2	-16	3.0	4	x	x	x	x	x	17
O=C(CN1C(=O)COc2ccccc21)N(Cc1cccnc1)Cc1cccc(F)c1	4	71*	0.4	-5	x	x	x	x	x	0
CC(=O)Nc1cc(C(=O)N2CCCC2)ccc1Sc1ccc(Cl)cc1	3	-12	u	-4	x	x	x	x	x	0

Some entries already given, showing only Beta cell apopt, RanGTP-Imp inh and Calb FLC.
mol	Beta cell apopt	RanGTP-Imp inh	Calb FLC
COc1ccc(C(=O)NC(=S)NC(C)C)cc1Br	-4	6.2	-42
COc1ccc(/C=C/C(=O)OCC(=O)c2ccc3c(c2)NC(=O)CO3)c(OC)c1	-11	-2.9	-8
COCC(C)NC(=O)Cn1c(SCc2ccccc2)nc2ccccc21 (centres undefined)	0	-1.1	3
CN1C(=O)CSc2ccc(C(=O)O)cc21	-2	-0.1	-3
O=C(Nc1ccc(C(=O)N2CCN(c3ccccc3)CC2)cc1)C1=CSCCO1	-1	-4.6	-9

Following part.
SMILES	Beta cell apopt	T cruzi inh	RanGTP-Imp inh	ALR inh	FGF22 binding	rRNA inh HTS	rRNA inh HTS OD600	rRNA inh HTS RFP	MLL AF4-AF9 inh	Calb FLC
O=C(Nc1ccc(S(=O)(=O)N2CCCC2)cc1)c1ccccc1	x	-6	1.7	-20	+	-1	-5	-3.1	-11	-25
Cc1ccc2c(c1)-c1ccccc1S(=O)(=O)N2	x	-11	-2.2	95*	x	x	x	x	x	6
Cc1cccc(-n2nnc3c(=O)n(CC(=O)Nc4cc(C)on4)cnc32)c1	-1	0	4.4	-3	i	3	13	-0.3	1.6	-14
CC(=O)NCc1ccc(S(=O)(=O)NC(C)CCc2ccccc2)cc1 (centres undefined)	-5	2	-0.5	-16	i	x	x	x	0.1	2
Cc1ccc(C)c(N2CCN(C(=O)c3cc4ccccc4oc3=O)CC2)c1	-1	19	9.1	13	i	x	x	x	-1.8	-10
Nc1ccc(C(=O)NCc2ccccc2)cc1	0	-11	-2.0	3	i	2	18	-1.7	6.0	-1
COc1ccc(CC(=O)Nc2ccc(S(=O)(=O)NCC3CCCO3)cc2)cc1 (centres undefined)	9	-19	1.9	x	x	x	x	x	x	-9
Fc1ccc(Nc2ccnc(C(F)(F)F)c2)cc1	x	0	3.2	x	i	-2	1	-2.5	-0.9	0
COc1cccc(SCc2noc(C(=O)NC(C)C)c2C(=O)NC(C)C)c1	-3	-2	7.2	16	i	-14	-28	10	-11	9
O=C(COc1ncnc2cc([N+](=O)[O-])ccc12)NCCc1ccc(Cl)cc1	1	56*	0.2	-12	i	16	10	3.2	-1.0	29
COc1ccc(Oc2nc(-c3cccnc3)nc3ccccc23)cc1	7	33	1.5	-11	i	-4	-12	-4.3	-0.6	7
Cc1cccc(OCC(=O)NCCNC(=O)c2ccco2)c1	x	-17	-1.3	-15	i	-1	3	3.3	-2.4	-3
Cc1ccc(C(=O)O)cc1NC(=O)c1cccs1	-2	3	-0.3	0	x	x	x	x	-0.6	-11
O=c1nc2n(c3cc(Cl)c(S(=O)(=O)N4CCOCC4)cc13)CCCCC2	-5	5	-0.2	13	x	x	x	x	x	-5
O=C(CN1C(=O)NC2(CCOc3ccccc32)C1=O)c1ccc(Cl)cc1 (centres undefined)	-1	-3	-3.0	-15	i	-19	-19	-3.6	0.9	1
CN1/C(=C\C=O)C(C)(C)c2ccccc21	64	17	-0.2	-4	i	8	4	60	-1.9	19
Cc1cccc(C)c1NC(=O)CN(C)C(=O)CC1Sc2ccccc2NC1=O (centres undefined)	-3	-5	-0.1	17	i	3	12	-0.2	-1.8	9
COc1ccc(C(=O)NCCCOc2cccc(NC(C)=O)c2)cc1	7	3	-2.1	-2	i	0	7	0.3	1.3	0
CC(C)C(=O)Nc1ccc(C(=O)NC2CCSC2=O)cc1 (centres undefined)	1	-2	u	-8	x	x	x	x	x	-3
S=C(N/N=C/c1ccc(Cl)cc1)N1CCOCC1	18	14	3.9	12	x	x	x	x	x	-10
C=CCn1c(SCC(=O)NC2CCCCC2)nc2ccccc2c1=O	0	4	-4.3	0	i	11	15	5.5	-4.1	-6
CC1CCN(C(=O)CSc2nnc(Cc3cc(=O)[nH]c(=O)[nH]3)n2-c2ccc(Cl)cc2)CC1	-5	2	-9.4	0	i	8	11	0.6	6.1	0
CCc1ccc(NC(=O)c2ccc(NC3=NC4CS(=O)(=O)CC4S3)cc2)cc1 (centres undefined)	2	-12	-6.7	-5	i	1	5	-0.7	0.8	-14
O=C(NNC(=O)c1cccc([N+](=O)[O-])c1)c1ccncc1	-2	15	3.5	3	i	14	10	-1.3	-1.4	-3
C=C(C)C1CC=C(C)/C(=N/NC(=O)COc2ccc(Cl)cc2)C1 (centres undefined)	3	15	2.8	-16	i	-2	-4	-1.6	-0.9	8
Cc1c(C)c(C)c2[nH]c(=S)[nH]c2c1C	-2	-36	1.0	-20	i	5	5	0.5	-1.6	-1
CCn1cc(C(=O)N[C@H](C(=O)NC(C)(C)CO)C(C)C)c(=O)c2cc3c(cc21)OCO3	0	-6	-3.3	x	i	27	13	0.7	-1.5	1
CC(C)(C)n1cnc2cc(NS(=O)(=O)c3ccccc3)ccc21	-4	5	7.6	2	x	x	x	x	x	-4
CCCOc1ccc(/C=C/c2c([N+](=O)[O-])c(=O)n(C)c(=O)n2C)cc1	8	22	-3.6	-1	i	-4	2	-0.3	1.5	6
Cn1cc(CC(=O)N2CCN(c3ccc(Cl)cc3)CC2)c2ccccc21	x	10	3.2	0	x	x	x	x	x	1

Reprinted at random: 3 compounds from above
SMILES	Beta cell apopt	T cruzi inh	RanGTP-Imp inh	ALR inh	FGF22 binding	rRNA inh HTS	rRNA inh HTS OD600	rRNA inh HTS RFP	MLL AF4-AF9 inh	Calb FLC
S=C(N/N=C/c1ccc(Cl)cc1)N1CCOCC1	18	14	3.9	12	x	x	x	x	x	-10
CN1/C(=C\C=O)C(C)(C)c2ccccc21	64	17	-0.2	-4	i	8	4	60	-1.9	19
COc1ccc(C(=O)NCCCOc2cccc(NC(C)=O)c2)cc1	7	3	-2.1	-2	i	0	7	0.3	1.3	0

The listing continues.
SMILES	Beta cell apopt	T cruzi inh	RanGTP-Imp inh	ALR inh	FGF22 binding	rRNA inh HTS	rRNA inh HTS OD600	rRNA inh HTS RFP	MLL AF4-AF9 inh	Calb FLC
CCOC(=O)C1CCN(S(=O)(=O)c2c(C)[nH]c(C)c2C(=O)N2CCCC2)CC1	-4	-10	4.1	-6	i	13	16	0.4	-6.3	4
CC(CCc1ccccc1)NC(=O)COC(=O)c1cccn1C (centres undefined)	5	x	x	-1	i	6	14	1.7	-3.0	x
CCn1c(=O)n(CC)c2cc(S(N)(=O)=O)c(C)cc21	-5	-5	0.9	-6	x	x	x	x	x	-5
COC(=O)c1c(NC(=O)CN2CCC3(O)CCCCC3C2c2cc(OC)ccc2OC)sc(C)c1C (centres undefined)	-6	31	-2.4	-5	x	x	x	x	x	8
O=C(CN1C(=O)c2ccccc2S1(=O)=O)Nc1ccccc1C(=O)NCc1ccco1	-5	-4	1.4	4	x	x	x	x	x	2
CCOC(=O)[C@@H]1[C@H]2COc3cc(OC)ccc3[C@@H]2N2C(=O)N(c3ccc(OC)cc3)C(=O)[C@]12C	1	-5	0.8	1	i	-28	-55	5.0	1.4	-3
O=C(NCc1ccncc1)C(=O)NCC1OCCN1S(=O)(=O)c1ccc(Br)cc1 (centres undefined)	3	-19	-3.6	-6	i	0	17	-2.2	-2.5	-9
NC(=O)C1CCN(C(=O)C23CC4CC(CC(C4)C2)C3)CC1	-2	-11	2.1	1	x	x	x	x	x	3
Cc1cc(C(=O)N/N=C/c2ccc(C)o2)c2ccccc2n1	-1	-20	-0.7	0	x	x	x	x	x	u
O=[N+]([O-])c1ccc(S(=O)(=O)CC(CN2CCCCC2)N2CCCCC2)cc1 (centres undefined)	0	-3	5.4	-21	i	-2	0	-2.1	-0.1	-14
O=C(CSCc1cc(=O)[nH][nH]1)Nc1ccc(F)cc1	1	-14	8.4	14	i	14	0	-1.0	1.0	-4
COC(=O)n1c(=O)oc2cc(S(=O)(=O)N3CCOCC3)ccc21	2	-28	-7.3	15	x	x	x	x	x	-17

Screening data: PubChem BioAssay, Broad Institute
